VDR inh = Inhibitors of the vitamin D receptor (VDR): qHTS | VDR-SRC2-3 peptide fluorescence polarization, 2 h | 400,000 tested, 0.93% active | Vitamin D3 receptor (Homo sapiens), P11473 | Potency, µM, for inactives: max response, negative = inhibition, usual class: inhibitors; active means well fitted inhibition curve with a large enough effect; inconclusive means small, poorly fitted or top-dose-only effect, or another doubt; inactive means no such curve, though single readings can be large or run the other way; further: series mostly up to about 120 µM
Target sequence (P11473 whole entry, looked up): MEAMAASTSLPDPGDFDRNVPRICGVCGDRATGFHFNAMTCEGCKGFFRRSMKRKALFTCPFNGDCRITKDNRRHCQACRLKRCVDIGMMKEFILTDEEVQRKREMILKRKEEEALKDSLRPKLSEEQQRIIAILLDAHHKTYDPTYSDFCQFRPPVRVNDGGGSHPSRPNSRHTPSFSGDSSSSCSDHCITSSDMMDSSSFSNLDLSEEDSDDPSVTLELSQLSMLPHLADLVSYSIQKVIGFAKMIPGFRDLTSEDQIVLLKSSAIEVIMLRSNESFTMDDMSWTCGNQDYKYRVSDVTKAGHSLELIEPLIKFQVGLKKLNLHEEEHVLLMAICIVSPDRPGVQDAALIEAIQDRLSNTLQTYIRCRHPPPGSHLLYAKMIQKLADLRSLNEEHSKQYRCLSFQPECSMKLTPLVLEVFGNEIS
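Signal is fluorescence polarization, reporting how far test compounds block the interaction of VDR with the SRC2-3 coregulator peptide after a 2 h room-temperature incubation.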
* hit, by the source's call; u = inconclusive; & = joins results of further samples; [ ] = another dose, or the depositor's remark. On the % scale 0 is the no-effect control and ±100 the full control effect; potency means the concentration at half of the fitted maximal effect. This is a subset; count on the stated rates, not on these rows.

SMILES	VDR inh
CCCCCn1c(C(C)NC(=O)c2ccccc2)nc2ccccc21 (stereo unspecified)	-13%
COc1ccc(NC(=O)c2cc3c(C)nn(-c4ccccc4)c3s2)c(OC)c1	-1%
O=C(C(Cl)Cl)N1CC2CCC(CC2)C1	16%
COc1ccc(N2CC(C(=O)N[C@@H](CC(C)C)C(=O)NC3CCCCC3)CC2=O)cc1 (stereo partly specified)	-5%
CN1CCN(C(=O)/C(=C/c2ccc(F)cc2)NC(=O)c2ccccc2)CC1	-7%
O=C(Nc1ccc(Cl)cc1N1CCOCC1)C1CCCO1 (stereo unspecified)	0%
O=C(CN1CCN(c2ccccn2)CC1)NC1CCCCC1	5%
O=C(CSc1ccccc1)N1CCN(C(=O)c2ccco2)CC1	-2%
O=C(Nc1nc(-c2ccc(S(=O)(=O)N3CCCCCC3)cc2)cs1)c1cccs1	0%
O=C(Nn1cnnc1)c1ccc(Cl)c([N+](=O)[O-])c1	2%
COc1ccc(CN2CCN(C3CCOCC3)CC2CCO)c(C)c1C (stereo unspecified)	-1%
CN1CCN(CCCNC(=O)c2ccc(/C=C3\Sc4ccccc4N(Cc4ccc(F)cc4)C3=O)cc2)CC1	-14%
CCOC(=O)C1NC(=O)CC1c1ccccc1 (stereo unspecified)	-5%
COc1ccc(S(=O)(=O)N2CCC(NC(=O)N3CCOCC3)CC2)cc1	3%
Cc1cc(Cl)ccc1OCC(O)CNCCc1ccc(S(N)(=O)=O)cc1 (stereo unspecified)	6%
CCCCC(=O)Nc1ccc2c(c1)nc(CCN1CCN(C)CC1)n2C	-10%
O=C(COC(=O)CN1C(=O)C2CCCCC2C1=O)Nc1ccc(S(=O)(=O)N2CCOCC2)cc1 (stereo unspecified)	6%
Cc1cc(C)cc(N2CCn3c2nc2c3c(=O)n(Cc3c(F)cccc3Cl)c(=O)n2C)c1	13%
CCOC(=O)c1cccc(NC(=O)CCc2nnc3ccc(N4CCN(C)CC4)nn23)c1	-12%
Cc1occc1C(=O)NC1CCCCCC1	15%
CCOc1ccc(C(CC(=O)O)NC(=O)C2c3ccccc3Oc3ccccc32)cc1 (stereo unspecified)	-15%
CC(C)c1cc(C(=O)N2CCCC(N3CCN(c4ccc(F)cc4)CC3)C2)no1 (stereo unspecified)	10%
Cc1noc(C)c1COC(=O)C1CC(O)CN1S(=O)(=O)c1ccc(Cl)cc1 (stereo unspecified)	4%
Cc1c(-c2cc(Br)ccc2O)nc2cc3c(cc2c1C)OCO3	-7%
Cc1sc2c(c1C)c(=O)n(CCc1ccccc1)c(=O)n2Cc1ccccc1Cl	0%
O=C(O)c1cccc(N2C(=O)/C(=C/c3ccc(SCc4ccc(Cl)cc4)o3)SC2=S)c1	-30%
C=CCn1c(CSc2nnc(-c3ccccc3)n2C)n[nH]c1=S	7%
COc1ccc(C(=O)NCCOc2cccc(Oc3ccccc3)c2)cc1OC	-12%
CCOc1ccccc1NC(=O)c1cc2c(=O)n(Cc3cccnc3)ccc2nc1C	2%
CCn1c(C)[n+](CCCS(=O)(=O)[O-])c2cc(Cl)c(Cl)cc21	-12%

Part of the list above in another layout:
| mol | VDR inh |
| --- | --- |
| O=C(O)c1cccc(N2C(=O)/C(=C/c3ccc(SCc4ccc(Cl)cc4)o3)SC2=S)c1 | -30% |
| C=CCn1c(CSc2nnc(-c3ccccc3)n2C)n[nH]c1=S | 7% |

Continued.
SMILES	VDR inh
CC1Cc2ccccc2N1c1ncnc2c1nnn2Cc1ccccc1 (stereo unspecified)	-9%
O=C(COc1ccccc1Cl)NCCCN1CCOCC1	-9%
O=C(Nc1cccc(C(=O)O)c1)Nc1ccc2c(c1)OCO2	-11%
CC1(C(=O)O)Sc2[nH]c(=O)sc2C2c3ccccc3OC(=O)C21 (stereo unspecified)	10%
CC(C)(C)c1ccc(Cc2n[nH]c(=S)[nH]c2=O)cc1	-8%
O=C(Nc1nc(COc2ccccc2)cs1)C12CC3CC(CC(C3)C1)C2	2%
CCc1ccc2c(-c3cccc(Cl)c3)nc(=O)n(CC)c2n1	-10%&-21%
CCn1cc(CNC(=O)/C=C/c2ccc([N+](=O)[O-])cc2)cn1	-17%
COc1ccc(/C=C/C(=O)OCC(=O)NC(=O)NC(C)(C)C)cc1	-24%
CCN(CC)C(=O)[C@H]1C[C@H](CC(=O)NCCCn2ccnc2)C(=O)N2CCc3c([nH]c4cc(CCC(=O)N(C)C)ccc34)[C@]12C	-14%
O=C(/C=C/c1c(Cl)nc2ccccn12)Nc1ccc(F)cc1	u
COc1cc(OC)c2c(-c3ccccc3)cc(=O)oc2c1C(CC(=O)N1CCCC1)c1ccc2c(c1)OCO2 (stereo unspecified)	-17%&-15%
Cc1ccc2nc(N(CCCN(C)C)C(=O)c3cc4ccccc4oc3=O)sc2c1	0%
COc1ccc(C(=O)OC(C)C(=O)NC2CCCCC2C)cc1S(=O)(=O)N1CCOCC1 (stereo unspecified)	-18%
Cc1ccc(/C=C/C(=O)NC2CCCCCCC2)o1	u
Cc1cc(C)n(CC(C)C(=O)O)n1 (stereo unspecified)	u
COc1ccccc1NC(=S)NC(=O)Cc1ccccc1	-3%
O=[N+]([O-])c1ccc(N2CCN(c3cccc(Cl)c3)CC2)nc1	14%
COc1ccc(C(=O)N[C@H](C(=O)OCC(=O)NC(=O)c2cccn2C)C(C)C)cc1	-15%
CCOc1ccc(Oc2ccc(-c3nnc(-c4ccccc4)o3)cc2[N+](=O)[O-])cc1	-2%

Part of the list above, with bars between the fields:
molecule | VDR inh
COc1ccc(C(=O)N[C@H](C(=O)OCC(=O)NC(=O)c2cccn2C)C(C)C)cc1 | -15%
O=C(/C=C/c1c(Cl)nc2ccccn12)Nc1ccc(F)cc1 | u
COc1cc(OC)c2c(-c3ccccc3)cc(=O)oc2c1C(CC(=O)N1CCCC1)c1ccc2c(c1)OCO2 (stereo unspecified) | -17%&-15%

Additional compounds:
SMILES	VDR inh
Cc1c(Cl)cccc1Nc1nc(N)nc(CSc2ncccn2)n1	-2%
CCOc1cc(/C=C(\C#N)c2[nH]nc(N)c2C#N)ccc1O	-8%
Cc1ccc2nc(-c3ccc(N4CCOCC4)cc3)c(Nc3ccccc3C)n2c1	-22%
CCOC(=O)c1ccccc1N/C=C1\CCCC1=O	0%
O=C(COC(=O)/C(=C/c1cccs1)c1cccs1)NC(c1ccccc1)c1ccccc1	-10%
CN(C)c1nc(N)nc(Cn2ccnc2)n1	4%
CC(NC(=O)COC(=O)c1ccc2ccccc2n1)c1ccccc1 (stereo unspecified)	-2%
CCOC(=O)c1c(-c2ccc(C)cc2)csc1NC(=O)c1cc(=O)c2ccc(C)cc2o1	1%
Cc1ccccc1-c1nc2sc(-c3ccccc3)cc2c(=O)o1	6%
COc1cc(C2NC(=O)NC(C)=C2C(=O)OC2CCCCC2)cc(Cl)c1O (stereo unspecified)	-19%

Some of these compounds in order of length of the SMILES, rising:
SMILES	VDR inh
CN(C)c1nc(N)nc(Cn2ccnc2)n1	4%
CCOc1cc(/C=C(\C#N)c2[nH]nc(N)c2C#N)ccc1O	-8%
Cc1ccc2nc(-c3ccc(N4CCOCC4)cc3)c(Nc3ccccc3C)n2c1	-22%
O=C(COC(=O)/C(=C/c1cccs1)c1cccs1)NC(c1ccccc1)c1ccccc1	-10%
CCOC(=O)c1c(-c2ccc(C)cc2)csc1NC(=O)c1cc(=O)c2ccc(C)cc2o1	1%

Reprinted at random: 6 compounds from above, in no set order.
SMILES	VDR inh
Cc1ccc2nc(-c3ccc(N4CCOCC4)cc3)c(Nc3ccccc3C)n2c1	-22%
CCOc1cc(/C=C(\C#N)c2[nH]nc(N)c2C#N)ccc1O	-8%
CN(C)c1nc(N)nc(Cn2ccnc2)n1	4%
Cc1c(Cl)cccc1Nc1nc(N)nc(CSc2ncccn2)n1	-2%
CC(NC(=O)COC(=O)c1ccc2ccccc2n1)c1ccccc1 (stereo unspecified)	-2%
CCOC(=O)c1ccccc1N/C=C1\CCCC1=O	0%

(more compounds)
SMILES	VDR inh
COC(=O)C1=C(Cn2cnc3ccccc32)NC(=O)NC1c1cc(C)ccc1C (stereo unspecified)	2%
Cc1ncc([N+](=O)[O-])n1Cc1ccc(F)cc1	13%
COc1cc(NS(=O)(=O)c2ccc(NC(=S)NC(=O)c3sc4ccccc4c3Cl)cc2)nc(OC)n1	-12%
O=C(c1cc2cc(Cl)ccc2oc1=O)N1CCCCCCC1	-6%
CCOC(=O)c1ccc2nc(C)c3c(c2c1)OC(C)C3 (stereo unspecified)	2%
C[C@]12O[C@H]1[C@@H](O)C(Br)=C(CO)[C@H]2O	2%
CC1CCCCN1CC(=O)Nc1ccc(Oc2ccccc2)cc1 (stereo unspecified)	-15%
Cc1oc(-c2cccc(F)c2)nc1CN1CCCN(C(=O)c2ccco2)CC1	u
Cc1cc(C)c(-n2c(SCc3nc4ccccc4s3)n[nH]c2=O)c(C)c1	-2%
COc1ccc(S(=O)(=O)N(C)CC(=O)N2CCN(c3ccc(F)cc3)CC2)cc1OC	-9%
Cc1cc(SCC(=O)Nc2nsc(-c3ccc(C(C)(C)C)cc3)n2)nc2ccccc12	-22%
CC1CCN(S(=O)(=O)c2ccc(NC(=O)CN3C(=O)NC(C)(c4ccccc4)C3=O)cc2)CC1 (stereo unspecified)	6%
COc1ccc(NC(=O)Cn2cnc3ccccc3c2=O)cc1OC	-23%
O=C(c1ccco1)N1CCN(Cc2ccccc2F)CC1	7%
Fc1cccc(NC(=S)N2CCCC2)c1	20%
Cc1ccc(-c2noc(CN(C(=O)C(c3ccccc3)c3ccccc3)C(C)C)n2)cc1	6%
COc1ccc(Cc2nnc(N/N=C/c3ccc(N(C)C)cc3)[nH]c2=O)cc1OC	-21%
COc1ccc(/C=N/NC(=O)Cn2c(Cc3ccc(OC)c(OC)c3)nc3ccccc32)cc1OC	1%
O=C(COC(=O)c1ccc2c(=O)n3c(nc2c1)CCC3)Nc1ccc(OC(F)F)cc1	30%[activator]
CCCCCC(=O)N1CCCC(c2nc(-c3ccc(OC)cc3)no2)C1 (stereo unspecified)	18%
CC(C)C(C(=O)Nc1ccc(S(=O)(=O)N2CCOCC2)cc1)N1C(=O)c2ccccc2C1=O (stereo unspecified)	22%
CCc1ccccc1NC(=S)N(CCN(C)C)Cc1cccs1	9%
COc1ccc2c(c1)c(=O)c(S(=O)(=O)c1ccccc1)cn2CC(=O)Nc1ccc(C)c(Cl)c1	-4%
Cc1ccc2nc3c(c(C(=O)OCC(=O)N(C)C4CCS(=O)(=O)C4)c2c1)CCCC3 (stereo unspecified)	1%
CC1=NN(C(C#N)c2c(C)nn(Cc3ccccc3)c2C)C(C)(C)C1 (stereo unspecified)	1%
CCn1c(SCC(=O)Nc2ccc(C)cc2)nc2nc3c(cc2c1=O)COC(C)(C)C3	2%
CCOCCCNCc1ccc(OCCC(C)C)c(OC)c1	-5%
O=C(NC1=NCCS1)c1ccc(C(F)(F)F)cc1	23%
C=C(C)COc1ccc(-c2[nH]ncc2Oc2ccc(OC)cc2)c(O)c1	7%
O=C(c1ccc(Cl)cc1)N1CCN(C(=O)C2CCCCC2)CC1	-9%
Cc1ccccc1Oc1ccc2c(c1)[C@@H]1C[C@H](N(C)C(=O)c3ccc(C#N)cc3)[C@H]([C@H](C)O)C(=O)N1CC2	-8%
Cc1ccc(NC(=S)NCCc2ccc(Cl)cc2)c(C)c1	2%
Cc1ccc(N2CC(C(=O)Nc3ccc(S(=O)(=O)Nc4nccs4)cc3)CC2=O)cc1C (stereo unspecified)	8%
CN(C(=O)CSc1nnc(-c2ccccc2F)o1)C1CCCCC1	5%
CC(C)c1ccc(NC(=O)CCS(=O)(=O)c2ccc(Br)s2)cc1	-7%
COc1ccc(C(=O)C2CCN(C(=O)c3ccc(F)cc3)CC2)cc1	8%
CC(=O)Nc1cccc(NC(=O)CSc2nnc3ccc(-c4cccnc4)nn23)c1	12%
CS(=O)(=O)N(CCc1ccccc1)CC(=O)NCc1ccccc1Cl	-5%
Cc1nn(C)c2nc(NNC(=O)Nc3cc(Cl)nc(Cl)c3)cc(C(C)C)c12	u
Cc1ccc(-n2ncc3c2CC(C)(C)CC3NC(=O)c2c(C)noc2C)cc1 (stereo unspecified)	-11%
CN1CCC[C@@H]1Cc1c[nH]c2ccc(CCS(=O)(=O)c3ccccc3)cc12	-28%
O=C(NC1CC1)C1=C[C@H](c2coc3ccccc3c2=O)C[C@H](OCc2ccc(CO)cc2)O1	-1%
Cc1cccc(N2CCN(C(=O)c3cc4c(=O)n(C)c5ccccc5c4s3)CC2)c1C	-13%
COc1ccc(NC(=O)CN2C(=O)NC3(CCCC3)C2=O)cc1Cl	0%
CCOC(=O)CSc1nnc(CNC(=O)c2ccccc2OC)n1-c1ccc(OC)cc1	1%
CC(CCCC(C)(C)O)CC1C2=C(CCCC2=O)OC2=C1C(=O)CCC2 (stereo unspecified)	4%
Cc1ccc(NC(=O)N2CC3CCCN3c3ccccc32)cc1Cl (stereo unspecified)	3%
Cn1nccc1C(=O)Nc1ccccc1C(=O)O	-3%
COc1ccc(-c2csc(N(CC(C)C)C(=O)c3ccco3)n2)cc1	-14%
COc1cc(C(=O)Nc2ccc3[nH]c(=O)sc3c2)cc(OC)c1OC	-2%
Next section:
SMILES	VDR inh
FC(F)Oc1ccccc1/C=N/n1cnc2ccccc21	-2%
COc1cccc(OCC(O)CN2CCN(c3ccc(F)cc3)CC2)c1 (stereo unspecified)	7%
COc1ccccc1C(=O)N1CCC(N2CCN(c3ccccc3OC)CC2)CC1	2%
NC(=O)C1CCN(C(=O)c2ccc(F)c(S(=O)(=O)N3CCOCC3)c2)CC1	-21%
COc1ccc(NC(=O)c2c(NC(=O)COc3ccccc3)sc3c2CCC(C)C3)cc1 (stereo unspecified)	-28%
Clc1ccccc1-c1ccc(/C=N/Nc2nncc(-c3ccccc3)n2)o1	-9%
CC(C)CC(=O)NS(=O)(=O)c1ccc(NC(=O)c2ccco2)cc1	1%
Cc1cccc(OCCCc2c(C)n[nH]c2C)c1	3%
CCOC(=O)c1ccccc1NC(=O)COC(=O)CN1C(=O)C2CC=CCC2C1=O (stereo unspecified)	-3%
Cc1ccc(NC(=O)CN2C(=O)NC3(CCCc4ccccc43)C2=O)c(Cl)c1 (stereo unspecified)	14%
